# Ab BasE inh – BasE siderophore enzyme inhibitors, primary screen, biochemical, Acinetobacter baumannii ATCC 17978, fluorescence polarization; inhibition, % (test concentration not listed); actives 0.1% (n = 84,000); purified BasE, fluorescence polarization binding displacement;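 active = both replicates above 25% with normal brightness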;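 also: 0% = negative plate control signal and 100% = positive plate control signal; stock transfer was 100 nL into about 30 µL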
# KSHV LANA nucl – inhibitors of KSHV LANA-nucleosome binding, primary screen, biochemical, fluorescence polarization, FITC-LANA1-23, chicken nucleosomes | FITC-LANA1-23 / chicken nucleosome fluorescence polarization; stronger effect = lower value | z-score (no concentration beside the values) | actives 0.3% (n = 51,000);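 active = both repeat wells score below -2 in polarization z-score versus plate sample wells, excluding overly bright wells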;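 also: 100 nL library stock added to about 30 µL; numbers are from one replicate; some results filed as inactive read as strong as hits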
#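 test system = FITC-LANA peptide and chicken nucleosomes | amount = 240 nM purified chicken nucleosomes (480 nM peptide binding sites), final | reagent = 50 nM FITC-LANA1-23 probe | medium = TEN-BT buffer, pH 7.5 | doses = single compound addition by pin transfer, 100 nL per well | timing = 10–45 min, room temperature | detection = fluorescence polarization | repeats = duplicate plates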
# * marks the source's active call; other numbers are inactive results; . = no result given; & = joins results of further samples. Not all compounds are listed; the hit share may differ from the screen's.
Structure,Ab BasE inh,KSHV LANA nucl
Clc1ccc(SCc2nnc(-c3ccc(Cl)cc3)o2)cc1,-1.5,.
CCOC(=O)Cc1csc(SCC(=O)N2CC(=O)Nc3ccccc32)n1,-0.2,.
O=C(NCCCN1CCOCC1)c1ccc(CS(=O)c2ccccc2)o1 (configuration not stated),-0.5,-0.22
Cc1ccc(NC(=O)C(C)Sc2nc(N)cc(N)n2)c(C)c1 (configuration not stated),1.6,-0.048
Cc1cc(C)cc(Oc2coc3c(CN4CCCCCC4)c(O)ccc3c2=O)c1,1.6,.
CCOC(=O)c1cc(=O)[nH]c2ccccc12,1.1,0.13
NNC(=S)NC1CC2CCC1C2 (configuration not stated),1.4,-0.21
Cc1cccc(OCC(=O)Nc2ccccc2C(=O)N2CCOCC2)c1,0.6,-0.71
CCCC(C)NS(=O)(=O)c1ccccc1 (configuration not stated),1.7,0.049
O=C1CCC2(C(=O)O)c3[nH]c4ccccc4c3CCN12 (configuration not stated),1.4,.
CCOC(=O)C1=C(c2ccccc2)N=c2s/c(=C\c3ccco3)c(=O)n2C1c1cccc(OC)c1 (configuration not stated),-14,0.61
Cc1nn(Cc2ccccc2Cl)c2sc(C(=O)NCCCn3ccnc3)cc12,-4.6,.
NC(N)=NCCn1ccc2ccccc21,-1.0,.
CCN(CC)C(=O)c1ccc(NS(=O)(=O)CC)cc1,-0.5,.
O=S(=O)(NC(=NCCc1ccccn1)Nc1cccc(Cl)c1)c1ccccc1,0.8,.
Cc1c(N=CN2CCOCC2)c(=O)n(C)c(=O)n1C,-4.0,1.5
S=C(NN=C1CCCCCC1)Nc1ccccc1,1.1,1.5
CCC(C)Sc1ncnc2sccc12 (configuration not stated),-1.5,.
Cc1noc(C)c1CSc1ncccc1C(=O)N1CCCC1c1cccs1 (configuration not stated),1.1,.
Cn1nc(-c2ccc(C(=O)N3CCCCC3)cc2)c2ccccc2c1=O,2.2,0.98
O=S(=O)(c1cccc2nonc12)N1CCC(n2cccc2)CC1,0.2,-0.43
N#CCC(=O)N/N=C/c1cc2ccccc2[nH]1,5.5,0.4
CCc1noc(C)c1C(=O)OCC(=O)Nc1ccc(NC(C)=O)cc1,-1.3,.
COC(=O)NNc1ncccc1C(F)(F)F,0.4,0.88
O=C1c2ccccc2-c2nc3ccccc3c(=O)n21,4.3,-0.59
CCCC(c1nnnn1CC1CCCO1)N(Cc1cc2cc(C)cc(C)c2[nH]c1=O)C1CCCC1 (configuration not stated),1.6,0.24
CCC(C)C(C(=O)O)N1C(=O)c2ccccc2C1=O (configuration not stated),-2.4,-0.011
O=C(CCn1cnc2onc(-c3ccc(F)cc3)c2c1=O)N1CCCc2ccccc21,-0.2,.
O=C(c1ccc(S(=O)(=O)N2CCOCC2)cc1)n1nnc2ccccc21,1.2,-0.79
CCOc1ccc2nc(NC(=O)c3ccccc3OC)sc2c1,-0.1,.
COC(=O)Cn1c2ccc(Cl)cc2c2nc3ccccc3nc21,-0.7,.
c1ccc(-c2nnc3n2N=C(c2cccs2)CS3)cc1,-0.6,.
Oc1c(CN2CCOCC2)cc(Cl)c2cccnc12,2.4,.
O=S1(=O)CC(c2ccccc2)CS(=O)(=O)C1CC1S(=O)(=O)CC(c2ccccc2)CS1(=O)=O (configuration not stated),-1.8,.
COC(=O)Oc1cc2oc(=O)sc2cc1Cl,-0.4,.
Clc1c(-c2nnc(-c3cccs3)o2)sc2ccccc12,2.8,-0.24
O=C(Cn1cnc2onc(-c3ccc(F)cc3)c2c1=O)NC1CCN(Cc2ccccc2)CC1,-8.4,.
Fc1ccc(Cn2c3ccccc3c3nn4cnnc4nc32)cc1,7.8,-1.6
c1ccc(CNCC2CC2)cc1,-1.6,0.058
CCc1ccc(-n2c(SCC(=O)NCC(C)C)nnc2-c2ccncc2)cc1,-1.5,0.43
CCOC(=O)c1[nH]c2ccccc2c1NC(=O)c1ccc(N2C(=O)CCC2=O)cc1,0.5,0.18
N#Cc1ccc(NC(=O)CSc2nc3ccccc3[nH]2)cc1,2.4,-0.73
Cc1noc(C)c1COc1ccc(C(=O)OCC(=O)N(C)C2(C#N)CCCCC2)cc1,2.1,.
Nc1nc2cc(Cl)ccc2n1CCCO,0.3,0.88
CCn1ncc(Cl)c1C(=O)NCc1ccco1,5.1,0.052
O=C1NCCCCC1NCC(O)c1ccccc1 (configuration not stated),3.5,0.64
O=C(Nc1cccc(N2CCCC2)c1)C(F)(F)C(F)F,1.2,0.78
CC1CN(Cc2nc(N3CC(C)OC(C)C3)c3c4c(sc3n2)CCCC4)CC(C)O1 (configuration not stated),-0.5,.
O=c1oc2c(-c3cccc(Cl)c3)cc(O)cc2s1,-0.1,1.8
CS(=O)(=O)N1N=C(c2ccccc2)CC1c1ccccc1 (configuration not stated),-0.1,1.5

# Record cards, as listed above. Order of values: Ab BasE inh, KSHV LANA nucl
# Cc1noc(C)c1COc1ccc(C(=O)OCC(=O)N(C)C2(C#N)CCCCC2)cc1 is listed with 2.1, .
# O=c1oc2c(-c3cccc(Cl)c3)cc(O)cc2s1 is listed with -0.1, 1.8

# Next section.
Structure,Ab BasE inh,KSHV LANA nucl
O=C(OC1COC(c2ccc(Br)cc2)OC1)c1ccc(Br)cc1 (configuration not stated),1.7,.
Cn1nccc1NC=C(C#N)C#N,4.5,-0.21
CCC(C(=O)Nc1ccc2c(c1)OCO2)n1nc(-c2ccc(C)cc2)c2c(c1=O)CCCC2 (configuration not stated),-1.4,-0.2
COCCNC(=O)Cn1cc(/C=C(\C#N)C(N)=O)c2ccccc21,2.0,-0.14
C=CCNC(=O)c1ccc(OCC=C)cc1,0.0,1.2
CC1=C(C(=O)OC(C)(C)C)C(c2cccc(Cl)c2)NC(=O)N1 (configuration not stated),0.3,-0.24
CN(CC1COc2ccccc2O1)C(=O)c1cc(=O)[nH]c2ccccc12 (configuration not stated),2.5,.
Cc1ccc2cc3c(N)c(-c4nnc(-c5ccccc5)o4)sc3nc2c1,6.8,-1.5
CCn1c(=O)/c(=C\c2ccc(N(C)C)cc2)s/c1=C(/C#N)C(=O)Nc1ccc(C)cc1,-6.3,.
O=C(CNC(=O)C1CCCCC1)OCc1cc(=O)n2cc(Br)ccc2n1,1.2,.
CN1CCN(/N=C/c2ccc(OC(F)F)cc2OC(F)F)CC1,0.8,.
Cc1cc(C)c2c(c1)NC(=O)C21NNc2ccccc2O1 (configuration not stated),-19,.
C/C(=N\NC(=O)CCn1c2c(c3ccccc31)CCCC2)c1ccc(Br)s1,2.1,0.45
Cc1cc(Br)cc(Br)c1OC(=O)c1ccco1,0.8,-0.51
O=C(Cc1ccccc1)Nc1nc2ccccc2s1,-3.6,0.0005
CCOC(=O)c1c(C)[nH]c(C)c1S(=O)(=O)NC1CCCCCCC1,0.4,.
CC(=O)N1CCN(S(=O)(=O)c2cccc(C(=O)OCc3cc(Cl)cc4c3OCOC4)c2)CC1,-0.5,.
O=C(Nc1cccc(Cl)c1)Nc1ccc2c(c1)oc1ccccc12,1.9,.
COc1ccc(-c2nc(SCC(=O)C(C#N)c3nc(C)cs3)n[nH]2)cc1 (configuration not stated),3.0,.
c1ccc2c(c1)OCC(CSc1nnc3ccccn13)O2 (configuration not stated),16,.
COc1cc(OC)cc(C(=O)N2CCC(C(=O)NCCc3ccccc3)CC2)c1,-1.1,2.1
Cc1c(Cl)cnc(NC(=O)COC(=O)/C=C/c2cccn2C)c1Cl,3.6,.
CC(=O)N=C(C)CC1(OC(C)=O)C(=O)N(C)c2ccccc21 (configuration not stated),-0.6,1.4
CCC(NC(=O)Nc1cc(C)ccc1OC)c1c(-n2cccc2)sc2c1CCN(CC)C2 (configuration not stated),-0.8,1
CC(C)(C)c1cc2nc(C(F)(F)F)cc(N3CCN(c4ccc(C(F)(F)F)cn4)CC3)n2n1,0.7,.
COc1ccc(C(=O)c2ccc(OC)cc2OC)c(OC)c1,-0.4,0.42
COC(=O)c1c(CSc2nnc(-c3cc(OC)c(OC)c(OC)c3)o2)nc2ccccc2c1C,0.9,.
Cc1ccc(C)c(N=C2SCCCN2C(=O)c2ccc(C#N)cc2)c1,-1.2,.
COc1ccc(-c2nc(C#N)c(N3CCC(C(N)=O)CC3)o2)cc1,-1.1,.
NNC(=O)Cn1ccc(C(F)(F)F)n1,0.0,.
CCc1ccc(N=Cc2c(O)n(-c3ccccc3)c(=O)c3ccccc23)cc1,1.1,.
CCN(C(=O)CSc1nnc(Cn2nnc3ccccc32)o1)c1nc(-c2ccccc2)cs1,1.5,-1.4
O=S(=O)(c1ccc(NCC2CCCO2)nc1)N1CCC(Cc2ccccc2)CC1 (configuration not stated),1.1,.
Fc1ccccc1N1CCN(Cc2cn[nH]c2-c2ccc(Cl)cc2)CC1,0.4,-0.84
CCC(CC)c1nnc(NC(=O)C2COc3ccccc3O2)s1 (configuration not stated),-1.1,.
O=C(Nc1nc(-c2cccs2)cs1)c1ccc(S(=O)(=O)N2CCOCC2)cc1,1.3,-0.52
CCC(=O)/C=C\c1nnc2cc3c(cc2c1-c1ccc(CC)o1)OCCO3,7.9,0.96
COc1cc(C(=O)NN2C(=O)CSC2=S)cc(OC)c1OC,-0.9,.
Cn1nnc2cc(C(=O)NCc3ccco3)ccc21,5.1,-0.6
Cc1ccc(-n2ncc(N(C)n3cccc3)c(Cl)c2=O)cc1,2.9,.

# Ordered by length of the SMILES (ascending): some entries from above.
Structure,Ab BasE inh,KSHV LANA nucl
O=c1oc2c(-c3cccc(Cl)c3)cc(O)cc2s1,-0.1,1.8
Cc1cc(C)cc(Oc2coc3c(CN4CCCCCC4)c(O)ccc3c2=O)c1,1.6,.
COc1ccc(-c2nc(SCC(=O)C(C#N)c3nc(C)cs3)n[nH]2)cc1 (configuration not stated),3.0,.

# Quoted at random: 3 records from the list, in no set order.
Structure,Ab BasE inh,KSHV LANA nucl
O=C(CNC(=O)C1CCCCC1)OCc1cc(=O)n2cc(Br)ccc2n1,1.2,.
O=C(OC1COC(c2ccc(Br)cc2)OC1)c1ccc(Br)cc1 (configuration not stated),1.7,.
COC(=O)NNc1ncccc1C(F)(F)F,0.4,0.88

# Further results follow:
Structure,Ab BasE inh,KSHV LANA nucl
COc1ccc(NC(=O)/C(C#N)=C/c2ccc3c(c2)n(C)c(=O)n3C)cc1,2.4,.
Cc1ccc2c(c1)c(=O)c(C(=O)O)cn2C,2.3,.
CN(C)C(CNC(=O)c1ccc(S(=O)(=O)N2CCCc3ccccc32)cc1)c1ccco1 (configuration not stated),0.2,.
NC(=O)CSc1nc(-c2ccccc2)cs1,0.8,.
CCC(C)C(NC(N)=O)C(=O)Nc1cccc(Cl)c1 (configuration not stated),2.4,.
COC(=O)c1c(COC(=O)c2ccc(NC(=O)c3ccco3)cc2)nc2ccccc2c1C,0.3,.
O=C(O)CN1C(=O)CC(Cc2ccccc2)C1=O (configuration not stated),2.3,-1.2
CCC(c1ccc(O)cc1)C(CC)c1ccc(O)cc1 (configuration not stated),-0.9&-2.0,0.2&0.041
O=C(N/N=C/c1cc2c3c(c1O)CCCN3CCC2)c1ccncc1,-4.5,0.96
COc1ccc(S(=O)(=O)Nc2ccccc2C(=O)NCc2ccco2)cc1OC,-1.8,0.89

# Ordered by the number under KSHV LANA nucl (ascending): 3 from the list above
Compound,KSHV LANA nucl
O=C(O)CN1C(=O)CC(Cc2ccccc2)C1=O (configuration not stated),-1.2
COc1ccc(S(=O)(=O)Nc2ccccc2C(=O)NCc2ccco2)cc1OC,0.89
O=C(N/N=C/c1cc2c3c(c1O)CCCN3CCC2)c1ccncc1,0.96

# The results go on.
Structure,Ab BasE inh,KSHV LANA nucl
CCS(=O)(=O)Nc1ccccc1-c1ccccc1,1.2,0.029
N#CC(c1ccccc1)c1ccccn1 (configuration not stated),-0.3,1.3
O=c1nc(N2CCCCC2)ccn1-c1nc(-c2ccccc2)oc1-c1ccccc1,0.8,0.65
CCN(CC)C(=O)C1=C(C)Nc2nc3ccccc3n2C1c1cc(Br)ccc1OC (configuration not stated),-1.3,-0.1
Cc1ccc(OCC(O)CN2C(=O)NC(C)(C)C2=O)c(Cl)c1 (configuration not stated),1.3,-0.1
O=c1[nH]c(CSc2ncnc3sccc23)nc2sc3c(c12)CCCC3,12,.
O=C1CCCC(O)=C1C=Nc1cccc(Cl)c1Cl,.,0.77
COc1ccc(OC)c(-c2cc(C(N)=O)on2)c1,1.5,.
O=C(O)c1cccc(Nc2nc3ccccc3n3cnnc23)c1,2.1,2.3
N#CC(C(N)=O)C(=S)Nc1ccccc1 (configuration not stated),0.1,.
C/C(N)=C(/C#N)C(=O)CSc1cccc[n+]1[O-],0.2,.
CCOC(=O)N1CCN(C(=O)CN(c2cc(C(F)(F)F)ccc2Cl)S(C)(=O)=O)CC1,-0.4,.
CC(Nc1ccc(-n2cnnn2)cc1)C(=O)Nc1ccc2c(c1)OCCO2 (configuration not stated),-2.6,.
CC(NC1CCCCCCC1)C(=O)Nc1ccc(S(N)(=O)=O)cc1 (configuration not stated),-4.2,.
CCOC(=O)NC(=S)c1ccc(OC)cc1,1.8,.
O=C(COc1ccc2oc3c(c2c1)CCCC3)NCCNc1ncc(C(F)(F)F)cc1Cl,1.1,.
CCCNC(=O)NC1CCN(c2ncc(C(F)(F)F)cc2Cl)CC1,2.3,.
